Source: PubChem (Southern Research Institute)
Mtb growth: Mycobacterium tuberculosis H37Rv growth inhibition, cell based, confirmatory dose response (AID 1949); inhibition, % at 10 µg/mL, or IC50 in µg/mL where a hit was titrated; 100,000 compounds, 1.6% hits; most inactive calls were filed without a number and no value below 0 was filed; M. tuberculosis H37Rv growth inhibition;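 active means confirmed in a dose series; inconclusive means about 50% or more but not retested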;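 further: bacteria grown 7 days with compound before Alamar blue readout; 0% = untreated bacteria and 100% = reference antibiotic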
* hit, by the source's call; i = inactive; ? = inconclusive.

compound	Mtb growth
O=C(Nc1cccc(C(=O)N2CCOCC2)c1)C1CCCCC1	i
COc1cccc(NC(=O)CSc2nnc(CSCc3ccccc3)n2C)c1	i
O=C(NCCO)NC12CC3CC(CC(C3)C1)C2	i
CCOCCCNC(=O)C(=O)NC(C)CC (stereo not given)	i
CCN(CC)/C(C)=N/C(=O)Nc1ccccc1	i
O=C(NCCOc1ccccc1)C1CCCCC1	i
CC(C)(C)c1ccccc1OCC(O)CN1CCN(Cc2ccc3c(c2)OCO3)CC1 (stereo not given)	40%
CC1=C(C(=O)OC(C)(C)C)C(c2ccccc2Br)NC(=O)N1 (stereo not given)	i
COc1ccc(OC)c(NC(=O)c2ccc3c(c2)C2C4CCC(C4)C2C(c2ccccc2)N3)c1 (stereo not given)	7%
CC(=O)NCCOc1cccc2ccccc12	i
O=C(Nc1ccc(F)cc1F)N1CCN(c2ccccc2F)CC1	i
CC(=O)c1cccc(NS(=O)(=O)c2ccc(Cl)c(C(F)(F)F)c2)c1	i
COC(=O)c1cc(NC(=O)CN(c2cccc(OC)c2)S(C)(=O)=O)ccc1Cl	i
O=C(Nc1nc(-c2ccccc2)ns1)c1cccs1	?
O=C(NC(=S)Nc1ccc2c(c1)OCCO2)c1ccc2c(c1)OCO2	i
O=C(NC(=O)c1ccc(Cl)cc1)Nc1cc(N2CCCCC2)ncn1	2%
CSc1ccc(CNCc2ccc3c(c2)OCO3)cc1	i
COC(=O)C(C)Sc1nc(N2CCOCC2)nc(N2CCOCC2)n1 (stereo not given)	i
CC(C)(C)NS(=O)(=O)c1cccc2nonc12	i
COC(=O)C(NC(=O)C(C)Oc1ccccc1)C(C)C (stereo not given)	i
CCNc1cc(N2CCN(C(=O)c3ccccc3C)CC2)ccc1[N+](=O)[O-]	i
COC(=O)c1c(-c2ccccc2)csc1NC(=O)Cc1ccccc1	i
CCOC(=O)c1c(NC(=O)CCCOc2ccc(C)cc2)sc2c1CCC2	1%
CC(C)C(NC(=O)c1ccc(Cl)cc1)C(=O)NC1=NCCS1 (stereo not given)	i
CCOc1cc(CO)cc(Cl)c1OCc1cccc(C(=O)O)c1	i
CC1CCc2sc(N3C(=O)C4C5c6ccccc6C(c6ccccc65)C4C3=O)c(C#N)c2C1 (stereo not given)	i
CCOC(=O)C1=C(C)N=c2s/c(=C3/C(=O)Nc4ccccc43)c(=O)n2C1c1ccc(OCC)cc1 (stereo not given)	i
Cc1nnc(NCCc2ccccc2)n(N)c1=O	i
COc1ccc(NC(=O)COc2nc3c(C)cc(C)nc3o2)cc1OC	i
O=C(CSc1ccc(F)cc1)N1CCN(c2ccccc2)CC1	i
C=CCn1c(SCC(=O)Nc2ccc(OCC)cc2)nc2scc(-c3ccco3)c2c1=O	4%
N#Cc1c(NC(=O)C2c3ccccc3Oc3ccccc32)sc2c1CCC2	i
O=C(CNC(=O)C1CCCCC1)NNC(=O)c1ccc(Cl)cc1Cl	i
CCCc1cc(=O)oc2cc(OCc3c(F)cccc3F)c(Cl)cc12	i
CCCCNS(=O)(=O)c1ccc(NC(=O)c2ccc(-c3ccccc3)cc2)cc1	i
CCCCC(CC)C(=O)Oc1ccc2c(c1)oc(=O)c1ccccc12 (stereo not given)	i
Cc1cccc(/C(N)=N/OC(=O)c2cccnc2)c1	i
O=C(NCCc1ccccc1)C1CC1(c1ccccc1)c1ccccc1 (stereo not given)	i
O=C(c1cc([N+](=O)[O-])ccc1N1CCNCC1)N1CCCCC1	i
CC(C(=O)O)N1C(=O)C(=O)c2ccccc21 (stereo not given)	i

Compounds above that have a thiophene ring, fused or not, in the order listed:
compound	Mtb growth
O=C(Nc1nc(-c2ccccc2)ns1)c1cccs1	?
COC(=O)c1c(-c2ccccc2)csc1NC(=O)Cc1ccccc1	i
CCOC(=O)c1c(NC(=O)CCCOc2ccc(C)cc2)sc2c1CCC2	1%
CC1CCc2sc(N3C(=O)C4C5c6ccccc6C(c6ccccc65)C4C3=O)c(C#N)c2C1 (stereo not given)	i
C=CCn1c(SCC(=O)Nc2ccc(OCC)cc2)nc2scc(-c3ccco3)c2c1=O	4%
N#Cc1c(NC(=O)C2c3ccccc3Oc3ccccc32)sc2c1CCC2	i

Next part:
compound	Mtb growth
COC(=O)c1cc(S(=O)(=O)N2CCOCC2)c(Cl)cc1N1CCOCC1	i
COc1ccc(S(=O)(=O)NCCC(C)C)c(Cl)c1Cl	1%
CC(C)NS(=O)(=O)c1ccc(NC(=O)c2ccc(Cl)cc2Cl)cc1	i
COc1ccc(C(=O)Nc2ccccc2C(=O)Nc2cccc(C(F)(F)F)c2)cc1	i
COc1ccc(OC)c(N2C(=O)CC(N3CCC(C(N)=O)CC3)C2=O)c1 (stereo not given)	2%
C=CCNC(=O)C(C)Oc1ccc(OC)cc1 (stereo not given)	2%
CCc1nnc(NC(=O)c2ccc(-c3cccc(C(F)(F)F)c3)o2)s1	i
Cc1cc(=O)oc2ccc(OC(=O)C34CC5CC(CC(C5)C3)C4)cc12	i
CCn1c(C)c(/C=C/c2nc3ccccc3c(=O)n2C)c2ccccc21	i
CCOc1ccc(C(=O)Nc2cccc(-c3nc4cc(OC)ccc4o3)c2)cc1[N+](=O)[O-]	i
CCN(CC)C(=O)C(=O)Nc1cccc(Br)c1	i
Cc1cc(C)nc(/N=C(\N)N(Cc2ccccc2)Cc2ccccc2)n1	i
COCCN1C(=O)C(O)=C(C(=O)c2ccc(C)o2)C1c1ccc(F)cc1 (stereo not given)	4%
Fc1ccccc1Cn1cnc2ccccc21	i
COc1cccc(C(=O)Nc2nccs2)c1OC	i
Cc1ccc(NC(=O)c2cn(-c3ccccc3)nc2-c2cccnc2)cc1	1%
CNC(=S)N1CCN(c2ccccc2)CC1	i
CCc1ccc(-c2nn(-c3ccccc3)cc2CO)cc1	5.4µg/mL*
CCOc1ccc(-n2c(CCc3ccccc3)nnc2SCC(=O)N2CCCC2)cc1	i
COc1ccc(S(=O)(=O)N(C)CC(=O)Nc2cccc(Cl)c2C)cc1C	0%
COC(=O)C1=CN(Cc2ccc(F)cc2)C=C(C(=O)OC)C1c1cc(OC)c(OC)c(OC)c1	2%
Fc1ccc(NC(=S)N2CCN(Cc3ccc(Cl)c(Cl)c3)CC2)c(F)c1	i
O=C(NC1C(=O)NNC1c1ccc(Cl)cc1)c1ccc(Cl)cc1 (stereo not given)	i
CCOc1ccccc1OCCOCCN1CC(C)CC(C)C1 (stereo not given)	i
COC(=O)c1ccc(NC(=O)c2ccc(CN3CCc4ccccc4C3)cc2)cc1	i
COc1ccc(C(=O)Nc2nc(C(C)(C)C)cs2)c(OC)c1	i
O=C(Nc1cnn(Cc2ccc(Cl)cc2Cl)c1)Nc1cccc(Cl)c1Cl	21%
CCCc1cc(=O)oc2cc(OCc3ccc(OC)cc3)ccc12	i
COc1ccc(-c2ccc(C#N)c(SCc3ccccc3[N+](=O)[O-])n2)cc1	i
Cc1occc1C(=O)NCCN1CCOCC1	i
COc1cc(CNc2ccc3c(c2)OCCO3)ccc1OCC(=O)NC1CCCCC1	i
CCN(CC)C(=O)c1sc(NC(=O)COc2ccc(Cl)cc2C)c(C#N)c1C	i
Cc1ccsc1C=NN1CCN(c2ccc(Cl)cc2)CC1	i
NC(=O)c1c(NC(=S)NC(=O)CC23CC4CC(CC(C4)C2)C3)sc2c1CCCC2	i
COc1ccc2nc(NC(=O)c3c(-c4ccccc4Cl)noc3C)sc2c1	7%
COc1ccccc1N(CC(=O)Nc1cccc([N+](=O)[O-])c1C)S(C)(=O)=O	1%
CC(C)(C)C(=O)CC1(O)C(=O)N(Cc2ccc(Cl)cc2)c2ccccc21 (stereo not given)	4%
CC1CCCC(C)N1C(=O)c1sc2ccccc2c1Cl (stereo not given)	i
Cc1ccn(C(=O)c2ccc(Cl)cc2)n1	i
CC(C)C(=O)N1CCN(c2ccccc2NC(=O)c2cccc3ccccc23)CC1	6%
Cc1ccc(F)c(NC(=O)NC2CCCCC2)c1	i
O=C1CC(N2CCCCC2)C(=O)N1c1cc(Cl)cc(Cl)c1 (stereo not given)	i
COCC(=O)N1CCCc2ccccc21	1%
O=C(N1CCOCC1)N1CCN(S(=O)(=O)N2CCOCC2)CC1	0%
O=C1c2cccc3cccc(c23)C(=O)N1CCN1CCN(CC(O)COc2ccccc2)CC1 (stereo not given)	?
CC(C)n1c2ccccc2c2nc3ccccc3nc21	2%
Cc1ccc(C)c(NC(=O)C2CC(=O)OC23CCCCC3)c1 (stereo not given)	i
O=C1c2ccccc2C(=O)N1CC#Cc1ccccc1	i
CCOc1ccc(Cl)cc1CSc1nncn1N	i
O=C(CN(c1ccccc1)S(=O)(=O)c1ccc(Cl)cc1)N1CCN(c2cccc(Cl)c2)CC1	5%
COc1ccc(/C=C(/C#N)c2ccccc2F)cc1OC	3%
C=CCNC(=O)c1ccc(CSc2ccccc2)cc1	i
COc1ccc2nc(SCC(=O)Nc3ccc(S(=O)(=O)Nc4ccccn4)cc3)[nH]c2c1	i
O=C(Nc1cccnc1)c1cccc(C(F)(F)F)c1	i
CCN(c1ccccc1)S(=O)(=O)c1ccc(NC(=O)c2ccc(Br)o2)cc1	4%
CCOC(=O)c1c(C)sc(Sc2ccc(Br)cc2[N+](=O)[O-])c1OC	3%
Nc1nnc(Cn2c(-c3nonc3N)nc3ccccc32)s1	i
N#Cc1cc2c(nc1SCC(=O)N1CCCCC1)CCCCC2	i
O=S(=O)(Nc1ccc(F)cc1)c1ccc(NS(=O)(=O)c2cccs2)cc1	i
COc1ccc(CCNC(=S)Nc2c(C)n(C)n(-c3ccccc3)c2=O)cc1OC	i

Further results.
compound	Mtb growth
O=C1Nc2ccc(S(=O)(=O)N3CCOCC3)cc2C1(Cl)Cl	i
O=C(Nc1ccc(S(=O)(=O)Nc2ccccc2)cc1)c1ccccc1I	i
O=c1c2ccccc2[nH]c(=S)n1CCN1CCc2ccccc2C1	0%
CCOc1ccc(OCCCCOc2ccccc2Br)cc1	i
COc1ccc(C(C)(C#N)CC#N)cc1 (stereo not given)	i
Cc1cccc(Cn2c(C(O)c3ccccc3)nc3ccccc32)c1 (stereo not given)	17%
COc1ccc(CNC(=O)COc2ccc(Br)cc2C)cc1	9%
CCN1CCn2c3c(c4cc(Br)ccc42)CCCC31 (stereo not given)	i
Cc1ccc2oc(-c3cccc(NC(=O)c4cncc(Br)c4)c3)nc2c1	25%
CCOC(=O)c1ccc(NC(=O)COc2ccc(C(=O)Nc3c(CC)cccc3CC)cc2)cc1	i
CS(=O)(=O)c1ccccc1S(=O)(=O)N1CCN(c2nc3ccccc3s2)CC1	i
COc1ccc(Br)cc1S(=O)(=O)Oc1cc(Cl)ccc1Cl	i
COc1ccc(S(=O)(=O)N2CCCC(C(=O)Nc3ccc4c(c3)OCCO4)C2)cc1Cl (stereo not given)	i
Cc1ccc(OCC(=O)Nc2ccc(N(C)C)c3ccccc23)c(C)c1	16%
O=C(Nc1ccccc1Cl)C1CC(=O)N(c2ccc(Br)cc2)C1 (stereo not given)	i
Fc1ccc(CNC(=S)Nc2ncn(Cc3cccc(C(F)(F)F)c3)n2)cc1	6%
O=C(NCCN1CCCC1)c1cccc(F)c1	i
CCOC(=O)c1ccc(NC(=S)NNC(=O)COc2cc(C)ccc2C(C)C)cc1	i
CC(C)CNC(=O)CCN1C(=O)c2ccccc2S1(=O)=O	i
CCOc1cc(C)c(S(=O)(=O)N2CCCC2)cc1C	i
Cc1cc2c(=O)n(C)c(SCC#N)nc2s1	i
Cc1ccccc1-c1nc(C#N)c(N2CCCCC2)o1	5%
COc1cccc(C2NC(=O)NC(C)=C2C(=O)Nc2ccc(F)c(F)c2)c1OC (stereo not given)	0%
O=S(=O)(NNC(=S)NCCc1ccccc1)c1ccc(Br)cc1	i
CC(C)c1ccccc1OC(=O)c1ccccc1[N+](=O)[O-]	3%
O=C(CSc1nc2ccc(NC(=O)c3ccc(F)cc3)cc2s1)NC1CCCCC1	45%
CCOc1cc(/C=C2/N=C(c3ccccc3)OC2=O)ccc1OC(=O)c1ccco1	8%
Cc1cc(C(=O)Nc2c(F)cc(F)cc2Br)no1	i
COC(=O)CSc1nc2ccccc2c(=O)n1-c1cc(Cl)ccc1OC	4%
NS(=O)(=O)c1ccc(NC(=O)CS(=O)(=O)Cc2ccccc2)cc1	0%
Cc1ccc2nc(/C(C#N)=C\c3ccc(OCC(N)=O)cc3)[nH]c2c1	17%
COc1cc(/C=N/O)ccc1OCc1ccc(Cl)cc1	15%
O=C(N1CCOCC1)C1(c2ccccc2)CCN(S(=O)(=O)c2ccccc2)CC1	i
N#C/C(=C/c1ccc2c(c1)OCCO2)c1ccc([N+](=O)[O-])cc1	i
Cc1c(Cl)c(=O)oc2cc(OC(=O)CCNC(=O)OC(C)(C)C)c(Cl)cc12	i
COC(=O)Cc1ccc(NC(=S)NCc2ccccc2Cl)cc1	i
CN(c1cccc(NC(=O)CN(c2ccccc2F)S(=O)(=O)c2ccccc2)c1)S(C)(=O)=O	i
Cn1c(=O)c2c(ncn2Cc2ccc(Cl)c(Cl)c2)n(C)c1=O	i
Cc1ccc(N2CCN(CC(O)COc3ccc4ccccc4c3)CC2)cc1Cl (stereo not given)	5%

This is a subset. The share of hits here may be higher or lower than overall.
